Cruzain noTriton = blocks cruzain activity in detergent-free assay. P25779. purified cruzain, Z-FR-AMC fluorescence, no detergent. Potency, µM, for the others: max response, negative = inhibition, hits mostly inhibitors. hit rate 2.3% among 200,000. AID 1476;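 further: plate controls were enzyme without inhibitor for no effect and buffer without enzyme for full effect; nearly all actives have a fitted effect of over 40% in size; top concentration of the series not given in the record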
Target sequence (P25779 123-467 limits assumed): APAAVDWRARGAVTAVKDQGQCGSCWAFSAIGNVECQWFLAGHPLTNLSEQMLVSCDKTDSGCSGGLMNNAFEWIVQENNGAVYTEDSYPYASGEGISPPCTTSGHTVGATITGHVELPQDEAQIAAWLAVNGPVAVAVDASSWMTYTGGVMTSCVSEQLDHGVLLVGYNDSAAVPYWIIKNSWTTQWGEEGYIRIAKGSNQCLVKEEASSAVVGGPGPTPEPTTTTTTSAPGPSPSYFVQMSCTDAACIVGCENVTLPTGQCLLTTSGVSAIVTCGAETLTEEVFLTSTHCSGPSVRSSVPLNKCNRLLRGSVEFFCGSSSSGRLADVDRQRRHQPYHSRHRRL
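Purified cruzain at 1.5 nM, pre-incubated 15 min with compound at room temperature in 100 mM sodium acetate pH 5.5, 5 mM DTT, 0.00005% Triton X-100. Reaction started with 2 uM Z-FR-AMC; AMC fluorescence increase over 60 s gives rate.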
SARS PLP yeast = blocks SARS-CoV papain-like protease in a yeast assay; S. cerevisiae expressing SARS-CoV PLpro, growth rescue; control for the full effect not named in the record; Potency, µM (doses to about 32.9 µM), for inactives: at the top dose activity, positive = growth rescue; hit rate 0.19% among 330,000; AID 485353; active means well fitted rising curve with a large enough effect; inconclusive means small, poorly fitted or top-dose-only effect; inactive means no such curve, though single readings can be large or run the other way; further: 0% is about no effect; nearly all actives have a fitted effect of over 55% in size; growth read by luminescence after 48 h
StopGo reporter = FMDV 2A StopGo reporter, luciferase signal; human cells with a luciferase reporter of 2A StopGo recoding; control for the full effect not named in the record; hit rate 1.2% among 410,000; Potency, µM (top dose mostly 57.9 µM), for inactives: top-dose signal change, negative = less light; active = well fitted falling curve with a large enough effect; inconclusive = small, poorly fitted or top-dose-only effect; inactive = no such curve, though single readings can be large or run the other way; tested in HEK293T cells; further: on the % scale 0 is the no-effect control and ±100 the full control effect; nearly all actives have a fitted effect of over 45% in size; luciferase light after 4 h
LASV entry inh = inhibitors of Lassa virus binding or cell entry | AID 540256 | hit rate 1.2% among 300,000 | Lassa virus pseudotype entry inhibition, cell reporter; control for the full effect not named in the record | Potency, µM (doses to about 37.9 µM), for the others: at the highest dose activity change, negative = inhibition, hits mostly inhibitors; active means well fitted inhibition curve with a large enough effect; inconclusive means small, poorly fitted or top-dose-only effect, or effect the other way; inactive means flat fitted curve, though single readings scatter; tested in HEK293 cells; further: on the % scale 0 is the no-effect control and ±100 the full control effect; nearly all actives have a fitted effect of over 50% in size; luciferase read-out
Cruzain Triton = inhibitors of Trypanosoma cruzi cruzain with detergent; purified cruzain, Z-FR-AMC fluorescence, 0.01% Triton; Potency, µM, for inactives: max response, negative = inhibition, actives largely listed as inhibitors; hit rate 0.43% among 200,000; AID 1478;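 further: plate controls were neutral wells for no effect and buffer without enzyme for full effect; nearly all actives have a fitted effect of over 40% in size; top concentration of the series not given in the record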
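Enzyme 1.5 nM, Z-FR-AMC 2 uM, NaOAc 100 mM pH 5.5, DTT 5 mM, Triton X-100 0.01%; 15 min RT compound preincubation; kinetic ex360/em450, 60 s delta.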
NS1 function inh = blocks influenza NS1 protein function | S. cerevisiae slowed by influenza A NS1, growth recovery by OD600 | Potency, µM (highest dose often 46.1 µM), for the others: at the highest dose activity, positive = more growth | hit rate 0.4% among 270,000 | AID 2326; active means well fitted rising curve with a large enough effect; inconclusive means small, poorly fitted or top-dose-only effect; inactive means no such curve, though single readings can be large or run the other way; further: nearly all actives have a fitted effect of over 50% in size
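A cell-based growth assay was used: compounds that relieve NS1-induced slow growth of budding yeast raise OD600. Assay medium was yeast nitrogen base with ammonium sulphate and -URA supplement, pH 6.0, with 2% galactose.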
Marburg entry inh = inhibitors of Marburg virus binding or cell entry; Marburg virus pseudotyped entry inhibition, cell reporter; control for the full effect not named in the record; about a third of the inactives were read at about 46 µM; Potency, µM (top dose mostly 37.8 µM), for the others: at the top dose activity change, negative = inhibition, hits mostly inhibitors; hit rate 1.8% among 300,000; AID 540276; active = well fitted inhibition curve with a large enough effect; inconclusive = small, poorly fitted or top-dose-only effect, or effect the other way; inactive = flat fitted curve, though single readings scatter; tested in HEK293 cells; about a fifth of its hits are not listed in these tables; further: on the % scale 0 is the no-effect control and ±100 the full control effect; luciferase read-out
RE007 growth inh = less growth of the S. pombe RE007 Vpr strain; Potency, µM (top dose mostly 92.2 µM), for the others: at the highest dose activity change, negative = less growth; S. pombe RE007 Vpr strain, BacTiter-Glo ATP luminescence, 24 h; control for the full effect not named in the record; hit rate 0.21% among 360,000; active = well fitted falling curve with a large enough effect; inconclusive = small, poorly fitted or top-dose-only effect; inactive = no such curve, though single readings can be large or run the other way;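 further: on the % scale 0 is the no-effect control and ±100 the full control effect; nearly all actives have a fitted effect of over 50% in size; the assay follows cell death caused by Vpr and the record does not say whether a fall means rescue or toxicity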
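Fission yeast strain RE007, carrying one chromosomally integrated HIV-1 vpr copy, was seeded at OD 0.01 in PMG+AL medium with 23 nL pinned compound. After 24 h at 30 °C and 99% humidity, viability was read by BacTiter-Glo luminescence.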
* marks the source's active call; other numbers are inactive results; ? = inconclusive; . = not tested or not shown; & = joins results of further samples; [ ] = remark or other dose. Unless noted, the call rests on the fitted dose curve; in most records, active means well fitted curve in the direction sought with a large enough effect; inconclusive means small, poorly fitted or top-dose-only effect, or another doubt; inactive means no such curve, though single readings can be large; an effect the other way counts as inactive or inconclusive. Potency means the concentration at half of the fitted maximal effect.

SMILES	Cruzain noTriton	SARS PLP yeast	StopGo reporter	LASV entry inh	Cruzain Triton	NS1 function inh	Marburg entry inh	RE007 growth inh
CCOC(=O)N1CCC(N2C(=O)c3cc(C(=O)NC4CCCCC4)ccc3C2O)CC1 (stereo not given)	-17%	-2%	-24%	.	-5.0%	-49%	-6%	8%
CNCc1ccccc1OCc1ccccc1F	.	3%	-18%	-16%	.	-4%	-9%	3%
Cc1cc(C)c(S(=O)(=O)c2ccccc2)c(OC(=O)c2c(Cl)cc(Cl)cc2Cl)n1	-16%	-10%	-30%	?	-2.0%	17%	?	29%
CN(Cc1nc(-c2ccncc2)no1)S(=O)(=O)c1ccc(Br)cc1	-2%	-9%	?	-16%	0.0%	-48%	-32%	13%
Cc1cccc(NC(=O)c2sc3ncnc(N(C)C4CCCCC4)c3c2C)c1C	-4%	.	0%	23%[46.1 µM]	3.2%	.	.	.
CCOC(=O)CC(=O)CSc1nc(C)cc(C)c1C#N	4%	1%	0%	-2%	2.8%	7%	0%[46.1 µM]	22%
C[C@@]1(CO)[C@H](O)CC[C@@]2(C)[C@H]1CC[C@H]1C[C@@H]3C[C@@]12CC[C@]3(O)CO	-5%	-1%	-19%[97.4 µM]	?	1.4%	-2%	0.52µM*	.
CCCCOCCCNC(=O)N[C@@H](CC(C)C)C(=O)O	19%	1%	.	1%	1.5%	-6%	24%	-3%
Cn1nnnc1SCC(=O)Nc1nn(-c2ccccc2)nc1C(N)=O	.	7%	15%	16%[46.1 µM]	.	.	25%[46.1 µM]	-3%
COc1cccc(CN2CCCN(S(=O)(=O)c3ccc(Br)cc3)CC2)c1	-7%	6%	-12%	?	2.7%	-6%	?	-24%
O=C(OCc1ccccc1)N(CCF)c1cn(Cc2ccccc2)c(=O)n(Cc2ccccc2)c1=O	.	.	-14%	?	.	.	?	3%
O=C(Nc1ccc2nc(-c3ccc(Br)o3)[nH]c2c1)c1cccs1	-11%	-7%	-5%	?	-11%	-47%	?	19%
Cc1c(-n2c(SC(C)C(=O)NC(N)=O)nc3ccccc3c2=O)c(=O)n(-c2ccccc2)n1C (stereo not given)	.	3%	-6%	-1%	.	.	-2%[46.1 µM]	3%
COc1ccc(/C=C/C(=O)OCC(=O)Nc2cccc(C(C)=O)c2)cc1	-4%	7%	-21%	3%	-10%	6%	1%	-17%
CCn1c(CSc2nc3ccccc3s2)nnc1SCC(=O)NCC(=O)OC	9%	-3%	18%	-2%	6.0%	-1%	10%	-2%
Cc1ccc(-n2c(N)c(C(N)=O)sc2=S)cc1	-9%	9%	-31%	-4%	-2.3%	?	14%&14%	-1%
COc1cccc(N2CCN(C(=O)c3cnc4c(C)cccn4c3=O)CC2)c1	-3%	.	3%	4%[46.1 µM]	-6.4%	.	.	.
CCNc1nc2nc3ccc(C)cn3c(=O)c2cc1C(=O)NCC1CCCO1 (stereo not given)	.	1%	-3%	.	.	2%	.	-10%
CC1CCN(C(=O)CCC(=O)Nc2nnc(C(F)(F)F)s2)CC1	.	0%	-6%	.	.	-5%	.	5%
COc1ccc(C(=O)NCc2nnc(SCC(=O)NCc3ccco3)o2)cc1OC	.	?	4%	.	.	2%	.	39%
CC(=O)c1ccc(Nc2nc(-c3cccnc3)cs2)cc1	.	7%	-1%	?	.	16%	?	5%
Cc1ccc(S(=O)(=O)Nc2cc(C(F)(F)F)ccc2N2CCOCC2)cc1	22%	0%	25%	9%	-6.9%	8%	-42%	15%
COc1ccc(CNCCC(c2ccccc2)c2ccc3c(c2)OCO3)cc1 (stereo not given)	9%&-10%	0%	-21%&14%	?	-2.5%&4.3%	-14%	?	8%
O=C(CNC(=O)c1ccccc1Br)N/N=C/c1cccs1	.	0%	-4%	.	.	6%	.	-9%
CC(C)(C)c1csc(N/N=C/c2cccnc2)n1	.	-5%	0%	?	.	-38%	?	15%
Cc1ccc2cc(C#N)c(N3CCN(C(=O)c4ccccc4)CC3)nc2c1	.	-13%	?	.	.	-4%	.	-2%
CC(=O)c1cc(CN2C(=O)c3ccccc3C2=O)cs1	-6%	-11%	0%	-1%	1.9%	-18%	5%	-1%
O=C(NNC(=O)c1ccccc1Br)c1ccc(SCC2CCCO2)c([N+](=O)[O-])c1 (stereo not given)	1%	1%	-3%	3%	-2.3%	19%	3%	22%
C1CCN(c2nc(N3CCCC3)nc(N3CCNCC3)n2)C1	8%	-3%	.	.	-0.8%	3%	7%	.
COc1ccc(-n2c(CNc3ccc(C)cc3)nnc2SCc2ccccc2)cc1	5%	-6%	-14%	11µM*	-4.0%	?	?	.
CC(C)CN1C(=O)C(=O)N(CC(=O)N(C)CC(=O)Nc2ccc(F)cc2)C1=O	.	5%	-22%	-5%	.	.	4%	2%
CCOP(=S)(OCC)SCSP(=S)(OCC)OCC	.	.	-12%	?	.	.	1%	?
COc1ccc(Cn2ccc3nc(C)c(C(=O)Nc4ccc(OC)cc4OC)cc3c2=O)cc1	11%	.	-1%	6%[46.1 µM]	2.6%	.	.	.
c1ccc(-c2ccccc2OCCOCCN2CCc3ccccc3C2)cc1	.	-1%	-30%	-8%[46.1 µM]	.	-13%	?	-8%
CC1(c2ccccc2Br)NC(=O)N(CC(=O)N2CCc3ccccc3C2)C1=O (stereo not given)	.	0%	-11%	-12%	.	.	21%	-8%
O=C(Cc1c2ccccc2nc2ccccc12)c1ccccc1	-23%	-48%	-23%	19%	-1.2%	19%	2%	-2%
Cc1cccc(Nc2nc(C)cc(C)c2C#N)c1	.	0%	0%	.	.	-23%	.	-4%
CCC(=O)Nc1nnc(SCC(=O)NCC2CCCO2)s1 (stereo not given)	.	.	-13%	?	.	.	16%	85%
CCOc1ccc(/C=C/C(=O)Nc2cccc(C(C)=O)c2)cc1	-6%	2%	-23%	0%	-7.3%	-3%	-25%	-2%
COc1ccc(C2CC(c3ccccc3)=NN2C(=O)CCC(=O)O)cc1 (stereo not given)	.	0%	-3%	9%[46.1 µM]	.	11%	7%[46.1 µM]	6%

A few values from the entries so far:
Value of CC(=O)c1ccc(Nc2nc(-c3cccnc3)cs2)cc1 under SARS PLP yeast: 7%
Value of C1CCN(c2nc(N3CCCC3)nc(N3CCNCC3)n2)C1 under Marburg entry inh: 7%

Additional compounds.
SMILES	Cruzain noTriton	SARS PLP yeast	StopGo reporter	LASV entry inh	Cruzain Triton	NS1 function inh	Marburg entry inh	RE007 growth inh
COc1ccc(CCNC(=O)c2c(N)n(CCN3CCOCC3)c3nc4ccccc4nc23)cc1	?	-4%	-28%	?	-7.8%	-71%	?	0%
CCC(=O)OCC(=O)Nc1ccc(OC)cc1[N+](=O)[O-]	.	-2%	-7%	4%[46.1 µM]	.	1%	4%[46.1 µM]	-21%
COc1cccc(NC(=O)CSc2nccn2C2CCCC2)c1	-5%	.	48%[activator]	11%[46.1 µM]	-0.8%	.	.	.
Cc1cc(O)c(C(=O)c2ccccc2C(=O)O)cc1C	-2%	-2%	-4%	9%	-1.1%	4%	6%[46.1 µM]	13%
CCC(=O)C1CCCN(C(=O)CCc2nnc(C3(c4ccc(Cl)cc4)CCC3)o2)C1 (stereo not given)	.	2%	4%	?	.	1%	-8%	-15%
COc1cccc(C2(O)CCN(C(=O)C(C)C)CC2)c1	.	-1%	-25%	.	.	-3%	.	8%
Cc1ccc(O)c(-c2cc(-c3ccccc3[N+](=O)[O-])[nH]n2)c1	-7%	-36%	37%[activator]	-17%	-8.3%	-32%	?	-12%
CCSc1nnc2nc(C)cc(C)n12	-10%	8%	-14%	-8%	-1.2%	3%	0%[46.1 µM]	-3%
Cc1c(C(=O)N2CCN(c3ccc(F)cc3)CC2)sc2ncnc(N3CCN(c4ccccn4)CC3)c12	.	2%	?	?	.	-50%	?	?
Cc1cccc(N2CCN(CC(=O)N(C3CCCC3)C3CCS(=O)(=O)C3)CC2)c1C (stereo not given)	.	6%	-25%	?	.	.	-12%	-1%
COc1cc(OC)c(C2=NOC(C(=O)Nc3c(C)nn(CC(=O)N4CCCC4)c3C)C2)cc1Cl (stereo not given)	26%	3%	.	10%	1.6%	-6%	-19%	3%
Brc1cccc(OCCCNC2CCCC2)c1	.	1%	1%	.	.	22%	.	-3%
CCn1cc(C(=S)N2CCC(C(N)=O)CC2)c2ccccc21	.	0%	5%	-2%[46.1 µM]	.	.	3%[46.1 µM]	80%
CCOC(=O)C1=NN(C(=O)Cc2ccccc2)C(O)(C(C)(C)C)C1 (stereo not given)	.	2%	-5%	9%	.	-4%	?	30%
O=S(=O)(c1cc(F)ccc1F)N1CCC2(CC1)OCCN2S(=O)(=O)c1cccs1	.	-3%	-7%	9%	.	.	-5%	1%
O=C(CN1CCN(S(=O)(=O)c2ccc(Cl)cc2)CC1)Nc1ccc(N2CCOCC2)cc1	?	18%	-14%	11%	-1.7%	8%	6%	15%
COc1ccc(OCc2nnc(NC(=O)Nc3ccc(F)cc3)s2)cc1	.	-1%	-11%	.	.	0%	.	9%
CCOc1cc2c(C#N)c(N3CCOCC3)nc(N)c2c(N)n1	10%	6%	7%	0%	-8.2%	-2%	2%&2%	2%

Entries of single compounds as entered above.
Record of COc1cccc(N2CCN(C(=O)c3cnc4c(C)cccn4c3=O)CC2)c1 : Cruzain noTriton: -3%; SARS PLP yeast: .; StopGo reporter: 3%; LASV entry inh: 4%[46.1 µM]; Cruzain Triton: -6.4%; NS1 function inh: .; Marburg entry inh: .; RE007 growth inh: .
Record of Cc1c(-n2c(SC(C)C(=O)NC(N)=O)nc3ccccc3c2=O)c(=O)n(-c2ccccc2)n1C (stereo not given) : Cruzain noTriton: .; SARS PLP yeast: 3%; StopGo reporter: -6%; LASV entry inh: -1%; Cruzain Triton: .; NS1 function inh: .; Marburg entry inh: -2%[46.1 µM]; RE007 growth inh: 3%

Compound activity from PubChem BioAssay.
